Assay outcomes from PubChem.
PV pol inh = poliovirus RdRp elongation inhibitors, primary screen, biochemical, fluorescence polarization, total intensity. poliovirus polymerase elongation; stronger effect = lower value. AID 588519, 2011. 150,000 compounds, 0.66% hits. % elongation, % (compound at 16.7 µg/mL); in the data active means % elongation below about 90%; further: some results filed as inactive read as strong as hits
Target sequence (P03300 1749-2209 limits assumed): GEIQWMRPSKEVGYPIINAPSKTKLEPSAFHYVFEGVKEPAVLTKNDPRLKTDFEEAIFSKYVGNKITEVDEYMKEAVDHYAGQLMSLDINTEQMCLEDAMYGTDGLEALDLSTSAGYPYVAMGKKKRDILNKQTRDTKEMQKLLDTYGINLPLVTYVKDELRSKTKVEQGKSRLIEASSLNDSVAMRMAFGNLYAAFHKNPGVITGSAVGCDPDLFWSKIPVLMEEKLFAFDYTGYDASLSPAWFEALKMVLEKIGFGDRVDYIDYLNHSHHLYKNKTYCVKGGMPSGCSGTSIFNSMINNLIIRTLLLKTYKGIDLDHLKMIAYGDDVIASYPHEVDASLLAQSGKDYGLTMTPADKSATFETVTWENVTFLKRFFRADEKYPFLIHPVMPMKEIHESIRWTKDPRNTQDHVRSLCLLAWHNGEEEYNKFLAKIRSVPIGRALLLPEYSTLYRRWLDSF
MenB inh = M. tuberculosis MenB inhibitors, primary screen, biochemical, absorbance; 1,4-dihydroxy-2-naphthoyl-CoA synthase (Mycobacterium tuberculosis (strain ATCC 25618 / …; MenB enzyme assay, absorbance read-out; some hits fall short of the stated cut; inhibition, %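 (about 12 µg/mL by stock and volumes)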; 100,000 compounds, 0.43% hits;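 active means mean of two replicates above 30%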;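 further: 0% = no compound and 100% = wells with inactive enzyme; the first replicate is given; strong numbers were not always called active; inactives centre near -10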
MbtI inh = MbtI salicylate synthase inhibitors, primary screen, biochemical, fluorescence intensity. inhibition, %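 (about 17 µg/mL by stock and volumes)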. purified MbtI enzyme, fluorescence intensity read-out. 100,000 compounds, 0.89% hits. AID 493033, 2011;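 active means above 50% in both replicates, above 80% if mildly self-fluorescent; inactive means the rest, strongly fluorescent compounds included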;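 further: 0% = mean of negative and 100% = mean of positive controls; one replicate is shown; some compounds called inactive have numbers as strong as hits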
Target sequence (P9WFX0 whole entry, looked up): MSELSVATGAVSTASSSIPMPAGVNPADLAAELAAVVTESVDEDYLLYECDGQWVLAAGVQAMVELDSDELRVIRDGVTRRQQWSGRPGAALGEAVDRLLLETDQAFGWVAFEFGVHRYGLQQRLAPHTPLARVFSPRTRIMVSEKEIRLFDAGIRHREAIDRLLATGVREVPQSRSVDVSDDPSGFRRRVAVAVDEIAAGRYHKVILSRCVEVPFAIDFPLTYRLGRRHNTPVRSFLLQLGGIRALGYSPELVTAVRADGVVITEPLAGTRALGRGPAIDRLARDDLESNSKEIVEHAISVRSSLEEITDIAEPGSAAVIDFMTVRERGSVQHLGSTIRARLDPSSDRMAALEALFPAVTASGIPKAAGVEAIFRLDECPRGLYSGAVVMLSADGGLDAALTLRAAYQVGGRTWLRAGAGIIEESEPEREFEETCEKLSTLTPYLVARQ
PV pol inh intensity = also measured in PV pol inh; calls as there; % elongation; measured here: total intensity read-out; formula for this scale not given here;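 total fluorescence in place of polarization; lower means less elongation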
Numbers without * were called inactive; / = not tested or not shown; & = joins results of further samples.

#	SMILES	PV pol inh	PV pol inh intensity	MenB inh	MbtI inh
1	c1ccc(-c2cc(-c3ccccc3)n3ncnc3n2)cc1	104.0	104.0	/	-5.8
2	CCN1CCN(CCCNC(=O)c2ccc3c(=O)n4c(nc3c2)CCCCC4)CC1	100.0	101.0	8.8	0.6
3	COc1ccc(OC)c(/C=C/C(=O)Nc2cc(C(N)=O)cc(C(N)=O)c2)c1	100.0	109.0	-43.4	-122.5
4	Cn1c(O)c(C=NC(Cc2c[nH]c3ccccc23)C(=O)O)c(=O)n(C)c1=O (configuration not stated)	104.0	102.0	-59.9	-58.2
5	CSc1c(C#N)c(N)nc2sc(C(=O)c3ccc(Cl)c(Cl)c3)c(N)c12	87.0	189.0	-9.9	1.7
6	COC(=O)c1sc(N)c(C(=O)OC)c1Cn1nnc(-c2ccccc2)n1	101.0	96.0	-33.9	12.1
7	COC(=O)c1cc(CSc2nc3ccccc3n2CCC#N)oc1C	99.0	94.0	16.7	17.1
8	Cc1cc(C(O)(C(F)(F)F)C(F)(F)F)c(C)n1-c1ccccc1	103.0	97.0	/	-10.4
9	COc1cc(NC(=O)C2CCCCC2)c(OC)cc1NC(=O)CCC(=O)NCc1ccco1	101.0	102.0	4.4	-5.8
10	Cc1nn(C(N)=S)c2c1CC(COCCC(C)C)O2 (configuration not stated)	111.0	120.0	-32.1	-3.6
11	Cc1ccc(Nc2ccc3noc4c3c2C(=O)c2ccccc2-4)cc1	105.0	109.0	-15.7	22.1
12	c1ccc(Cc2nc3ccccc3[nH]2)cc1	101.0	105.0	/	0.3
13	COc1ccc(C(CC(=O)NCc2ccc(C)cc2)N2Cc3ccccc3C2=O)cc1OC (configuration not stated)	100.0	101.0	3.1	-4.7
14	CC(C)C1C(C#N)=C(N)Oc2c1oc(CO)cc2=O (configuration not stated)	103.0	106.0	-3.0	-6.7
15	COc1cc(-c2nc3ccc(Cl)cn3c2NC(C)(C)C)ccc1O	104.0	100.0	-21.2	-22.1
16	Cc1cccc(-c2nc(CS(=O)CC(=O)NC3CCCCCC3)c(C)o2)c1 (configuration not stated)	98.0	99.0	-13.5	8.6
17	Cc1cc2nc3c(=O)[nH]c(=S)[nH]c3nc2cc1NC(=O)C(F)(F)F	93.0	183.0	-24.5	20.5
18	CC(C)COC(=O)C1C2C=CC3(CN(Cc4cccs4)C(=O)C13)O2 (configuration not stated)	103.0	106.0	-3.0	3.5
19	O=C(Cn1cc(C(=O)C2CCCCC2)c2ccccc21)Nc1ccccc1	102.0	107.0	-15.8	2.1
20	Cc1cc(OCC(=O)Nc2ccccc2N2CCN(C(=O)C(C)C)CC2)cc(C)c1Cl	100.0	104.0	-3.7	-8.4
21	O=C(CSc1nnc2sc3ccccc3n12)NCC(F)(F)F	101.0	109.0	-10.7	11.3
22	CCCCN(C)C(=O)Cn1nc(C)c2c(C)n(-c3ccccc3)nc2c1=O	103.0	102.0	-14.9	-5.4
23	CC1(CCC#N)N=C(SCCC#N)N(c2ccccc2)C1=O (configuration not stated)	103.0	99.0	-45.6	-11.8
24	O=C(NC(C(F)(F)F)C(F)(F)F)OCc1ccccc1	103.0	103.0	0.5	-0.6
25	CC(C)N(C(=O)CSc1nnnn1C1CCCC1)C(C)C	104.0	99.0	-22.1	-7.2
26	CCC(=O)Oc1ccc(C(=O)N2CCCCC2)cc1	102.0	103.0	-9.8	-0.6
27	CCCc1c(C(=O)Sc2ccc(Cl)cc2)cnn1-c1ccccc1	105.0	121.0	-16.0	-5.7
28	CC(C)C(OC(=O)c1ccco1)C(=O)NCc1ccccc1 (configuration not stated)	102.0	104.0	-20.0	-21.0
29	O=C(NNc1ccccc1)c1ccccc1	104.0	104.0	-23.8	-1.2
30	Cc1ccc(CSc2nnc(OC(=O)N(C)C)n2-c2cccc(Cl)c2)cc1	101.0	99.0	-2.3	3.8
31	COc1ccc(C)cc1-n1c(SCC#N)nc2sc(C)c(C)c2c1=O	103.0	94.0	-17.5	21.4
32	O=C(CSc1cccc[n+]1[O-])Nc1ccccc1	104.0	108.0	/	-5.2
33	Cc1cccc(/C=C2\SC(=O)N(C)C2=O)c1	97.0	103.0	-27.0	8.4
34	CN(C)C=NC(=O)c1sc(S(C)(=O)=O)c2c1CCC=C2	106.0	106.0	-4.8	4.0
35	Cc1noc(/C=C/c2ccco2)c1S(=O)(=O)N1CCC(C(=O)O)CC1	105.0	98.0	-2.5	4.6
36	Cc1ccc(CNc2ccc(Cl)cc2)s1	104.0	102.0	-46.3	-7.5
37	CC1CCN(c2ncnc3c2cnn3Cc2ccc(Cl)cc2)CC1	103.0	107.0	-6.1	2.8
38	CC(=O)Nc1ccc2c(CSc3nncs3)cc(=O)oc2c1	101.0	94.0	4.6	105.3
39	CCOC(=O)c1ccc(NC2CCCc3c2[nH]c2ccc(C)cc32)cc1 (configuration not stated)	102.0	105.0	-34.8	-37.2
40	CNS(=O)(=O)c1cn(CC(=O)N2CCc3ccccc32)cc1S(=O)(=O)NC	104.0	103.0	-18.9	-7.2
41	CC(Sc1nncn1C)C(=O)Nc1ccc(S(N)(=O)=O)cc1 (configuration not stated)	102.0	113.0	0.1	-1.1
42	CCN(C(=O)c1cnccc1C(F)(F)F)c1ccc(Cl)cc1Cl	103.0	98.0	-14.2	-12.1
43	Cc1cc(C(=O)NN2CCN(C)CC2)cs1	102.0	104.0	4.1	-15.7
44	CCCCc1ccc(N2C(=NC(=O)CC)SC3CS(=O)(=O)CC32)cc1 (configuration not stated)	/	/	-3.2	6.3
45	Clc1ccc(C(OCCN2CCCCC2)c2ccccc2)cc1 (configuration not stated)	102.0&101.0	100.0&103.0	-1.9&2.5	0.7&-14.1

(list continues)
Results follow in this order: PV pol inh, PV pol inh intensity, MenB inh, MbtI inh
46: Cc1oc2ccc(O)c(CN3CCCC3)c2c1C(=O)NC1CCCCC1
  103.0, 104.0, -0.9, 7.4
47: NNC(=O)c1cccc(Cn2cccn2)c1
  101.0, 105.0, 0.5, /
48: C=CCn1c(N)cc(=O)nc1SC(C)C(=O)Nc1ccccc1 (configuration not stated)
  103.0, 99.0, -10.1, -3.8
49: CCOC(=O)CN1C(=O)S/C(=C\c2ccc(-c3ccc(Cl)cc3Cl)o2)C1=O
  100.0, 114.0, 0.7, /
50: Cc1ccc(-c2nnc(N3CCN(S(C)(=O)=O)CC3)c3ccccc23)cc1
  102.0, 102.0, -40.4, 1.2
51: FC(F)(F)c1ccc(N2CCCN(C(=S)Nc3cccnc3)CC2)nc1
  104.0, 101.0, -3.8, 4.5
52: N#Cc1ccc(C(=O)Nc2ccn(-c3ccccc3)n2)cc1
  102.0, 106.0, /, -3.8
53: COC(=O)C1CCN(C(=O)/C=C/c2ccccc2)CC1
  101.0, 100.0, -6.2, 12.8
54: O=S(=O)(c1ccc(Cl)cc1)N(Cc1ccccc1)Cc1ccco1
  104.0, 107.0, -10.1, -2.1
55: C=CCNc1ncnc2c1c(-c1ccccc1)cn2-c1cccc(C(F)(F)F)c1
  101.0, 98.0, -26.2, -1.8
56: O=C(Cc1c[nH]c2ccccc12)OCC(=O)N1CCCCC1
  109.0, 107.0, 0.5, -6.4
57: O=C(C1CCCCC1)N(c1ccc2oc3c(c2c1)CCCC3)S(=O)(=O)c1cccs1
  101.0, 91.0, -14.1, 2.8
58: Cc1ccc(S(=O)(=O)Nc2nc(O)c(C3=c4ccccc4=NC3=O)s2)cc1
  103.0, 103.0, -113.5, 37.2
59: Cc1ccc2ccccc2n1
  99.0, 108.0, 5.8, 1.1
60: Cc1ccc(OCC(O)CNCc2ccc(F)cc2)cc1 (configuration not stated)
  103.0, 102.0, -19.4, -1.4

Just MbtI inh, MenB inh and PV pol inh intensity, for 5 of the compounds above:
No.	canonical_smiles	MbtI inh	MenB inh	PV pol inh intensity
54	O=S(=O)(c1ccc(Cl)cc1)N(Cc1ccccc1)Cc1ccco1	-2.1	-10.1	107.0
59	Cc1ccc2ccccc2n1	1.1	5.8	108.0
55	C=CCNc1ncnc2c1c(-c1ccccc1)cn2-c1cccc(C(F)(F)F)c1	-1.8	-26.2	98.0
57	O=C(C1CCCCC1)N(c1ccc2oc3c(c2c1)CCCC3)S(=O)(=O)c1cccs1	2.8	-14.1	91.0
52	N#Cc1ccc(C(=O)Nc2ccn(-c3ccccc3)n2)cc1	-3.8	/	106.0

The listing continues:
Results follow in this order: PV pol inh, PV pol inh intensity, MenB inh, MbtI inh
61: O=C1C(c2ccccc2)=C(c2ccccc2)C(=O)N1O
  100.0, 100.0, -6.6, 12.9
62: Cc1c(CNCCc2cccs2)c(C(=O)O)c(C)n1Cc1c(F)cccc1Cl
  103.0, 107.0, -8.6, -0.3
63: Cc1cccc(-n2ncc(C(=O)NC3CC3)c2-n2cccc2)c1
  103.0, 98.0, -26.8, -4.2
64: Cc1ccc(S(=O)(=O)C2(C(=O)N3CC4CC(C3)c3cccc(=O)n3C4)CC2)cc1 (configuration not stated)
  99.0, 102.0, -22.4, 10.4
65: Cc1c(Cl)sn(-c2ccc(Cl)cc2)c1=O
  101.0, 103.0, 7.0, 100.6*
66: CCCOc1ccc(Oc2nc(N(C)C)nc(N3CCCC3)n2)nn1
  101.0, 100.0, 0.7, 0.3
67: COc1ccc(CCNC(=O)C(C#N)c2nc3ccccc3nc2N2CC(C)OC(C)C2)cc1OC (configuration not stated)
  46.0, 249.0, 0.6, 12.5
68: CCOC(=O)CC1(O)CCOC(C)(C)C1 (configuration not stated)
  105.0, 106.0, -5.9, /
69: N#Cc1c(-c2cccs2)nc(Nc2ccccc2)[nH]c1=O
  103.0, 104.0, -1.0, -16.8
70: Nc1nnc(CCS(=O)(=O)c2cc(Cl)ccc2Cl)s1
  103.0, 101.0, -3.3, 1.3
71: CCCOc1ccc(C=Nc2ccc(N3CCN(C)CC3)cc2C)c(O)c1
  120.0, 120.0, -2.2, -17.4
72: COc1ccc(C2=NC3(CCN(Cc4cccc(OC)c4)CC3)NC2=O)cc1
  100.0, 102.0, 4.4, -20.0
73: O=C(c1sc(N2CCOCC2)nc1-c1ccccc1)c1c[nH]c2ccccc12
  96.0, 93.0, -47.3, 22.6
74: COC(=O)c1ccc2c(c1)C(=O)/C(=C/c1ccc(O)cc1)O2
  104.0, 110.0, -14.6, -8.5
75: COc1ccc(N(C)C(=O)c2cn(C3CCCC3)c(=O)c3c2c2ccccc2n3C)cc1
  101.0, 98.0, -18.8, -1.1
76: O=C(O)c1nn(Cc2ccccc2)nc1C(=O)O
  100.0, 98.0, -18.6, /
77: Cc1ccccc1NC(=O)CSC1CCCCC1
  100.0, 98.0, -29.1, -8.3
78: COc1ccc(Nc2nc(N3CCN(S(C)(=O)=O)CC3)nc3ccccc23)cc1
  96.0, 95.0, -3.1, -75.7
79: Cc1ccc(-n2nnc(C(=O)NCC3CCCO3)c2N)cc1F (configuration not stated)
  105.0, 102.0, -3.3, -5.6
80: COc1ccccc1N(CC(=O)NCc1ccco1)S(C)(=O)=O
  102.0, 97.0, 4.0, 1.9
81: COc1ccc(CNC(=O)CCC2CCCC2)cc1OC
  101.0, 94.0, 10.6, -37.3
82: O=C(O)c1ccc(-c2ccc(Br)cc2)cc1
  102.0, 101.0, -8.3, 1.5
83: CCOc1ccc(NC(=S)N(Cc2cn(CC)c3ccccc23)C(C)C)cc1
  100.0, 102.0, -63.5, 7.7
84: O=C1CCC(=O)N1CC(=O)N1N=C(c2ccc(Cl)cc2)CC1c1ccco1 (configuration not stated)
  108.0, 111.0, -44.7, 1.9
85: CCN(CC)CCCNc1nc2cc(OC)c(OC)cc2c2nc(-c3ccccc3)nn12
  99.0, 100.0, -4.7, -9.3
86: COc1ccc(C2CC(=O)N(c3ccccc3)C3=C2C(=O)OC3)cc1OC (configuration not stated)
  101.0, 101.0, 23.7, 1.9
87: COc1cc2nc(NC(=O)c3cccs3)sc(=O)c2cc1OC
  100.0, 95.0, 6.9, 10.6
88: O=C(NC1=NCCCCCN1)c1ccccc1Cl
  105.0, 109.0, -13.4, /
89: COCc1nnc(NC(=O)Cc2ccccc2)s1
  100.0, 105.0, -4.8, /
90: Cc1nnc(NC2CC2)c2c1nnn2Cc1ccc(F)cc1
  101.0, 102.0, -2.2, -5.5

Entries 70–72 of the list above:
Results follow in this order: PV pol inh, PV pol inh intensity, MenB inh, MbtI inh
70: Nc1nnc(CCS(=O)(=O)c2cc(Cl)ccc2Cl)s1
  103.0, 101.0, -3.3, 1.3
71: CCCOc1ccc(C=Nc2ccc(N3CCN(C)CC3)cc2C)c(O)c1
  120.0, 120.0, -2.2, -17.4
72: COc1ccc(C2=NC3(CCN(Cc4cccc(OC)c4)CC3)NC2=O)cc1
  100.0, 102.0, 4.4, -20.0

The listing continues.
Results follow in this order: PV pol inh, PV pol inh intensity, MenB inh, MbtI inh
91: Cc1cccc(N(C)C(=O)CCn2ccc(C)n2)c1
  100.0, 102.0, 7.4, -15.9
92: CCn1c(=O)c2cc(C(=O)N3CCN(C(=O)c4ccco4)CC3)sc2c2ccccc21
  101.0, 104.0, 6.1, 41.2
93: CCN(CC)c1ccc(C(=O)OCC(=O)c2ccco2)cc1
  101.0, 105.0, 6.2, 5.8
94: O=C(CSc1ncc(-c2ccc(Br)cc2)[nH]1)N1CCOCC1
  103.0, 96.0, 15.7, 6.6
95: COC1C(OC)N(S(=O)(=O)c2ccc(C)cc2)CCN1S(=O)(=O)c1ccc(C)cc1 (configuration not stated)
  99.0, 93.0, -9.9, /
96: N#C/C(=C\c1ccc2c(c1)OCO2)c1ccccc1
  100.0, 103.0, -10.6, 4.5
97: CC1N(C(=O)N(C)C)CCN1S(=O)(=O)c1ccccc1 (configuration not stated)
  100.0, 100.0, -41.6, -0.4
98: CCN1C(=O)c2cccc3c(NC(C)=O)ccc1c23
  108.0, 101.0, -37.0, /
